VDR inh – vitamin D3 receptor (human) inhibition; VDR-SRC2-3 peptide fluorescence polarization, 2 h; P11473; 400,000 tested, 0.93% active; Potency, µM, without a hit: max response, negative = inhibition, actives largely listed as inhibitors; active = well fitted inhibition curve with a large enough effect; inconclusive = small, poorly fitted or top-dose-only effect, or another doubt; inactive = no such curve, though single readings can be large or run the other way; also: series mostly up to about 120 µM
Target sequence (P11473 whole entry, looked up): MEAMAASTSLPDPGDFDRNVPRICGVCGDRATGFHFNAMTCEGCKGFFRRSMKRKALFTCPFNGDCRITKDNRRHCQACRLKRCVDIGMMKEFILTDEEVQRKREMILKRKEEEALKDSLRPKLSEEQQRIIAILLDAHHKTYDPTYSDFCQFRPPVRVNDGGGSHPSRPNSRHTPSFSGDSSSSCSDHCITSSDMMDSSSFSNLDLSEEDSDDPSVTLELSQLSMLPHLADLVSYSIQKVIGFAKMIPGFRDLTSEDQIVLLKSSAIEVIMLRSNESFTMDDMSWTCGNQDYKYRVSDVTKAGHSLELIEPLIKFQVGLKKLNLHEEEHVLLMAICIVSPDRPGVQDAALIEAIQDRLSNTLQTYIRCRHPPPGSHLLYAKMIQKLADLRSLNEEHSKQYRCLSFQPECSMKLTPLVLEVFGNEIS
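FP read-out; VDR + SRC2-3 coactivator peptide; 23 nl compound by pintool; 2 h RT incubation; reagents held at 4 deg C, protected from light.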
Numbers without * were called inactive; ? = inconclusive; & = joins results of further samples; [ ] = dose if it differs, or a comment. % is scaled to controls: 0 for no effect and ±100 for the full control effect; potency is read from the fitted curve at half-maximal effect. A portion of the library (hit frequency here may not be typical).

Compound | VDR inh
C=CC1=C(C)/C(=C/c2[nH]c(Cc3[nH]c(/C=C4\NC(=O)C(C)=C4C=C)c(C)c3CCC(=O)O)c(CCC(=O)O)c2C)NC1=O | ?
COc1cccc(CN(C(=O)c2ccccc2Cl)C2CCS(=O)(=O)C2)c1 (stereo unspecified) | -4%
CC(=O)NC1=NN(C(C)=O)C(c2ccc(F)cc2)S1 (stereo unspecified) | 109%[activator]
c1ccc2c(c1)CCCN2c1nc2ccccc2n2cnnc12 | -3%
Cc1c(O)c(C)c2c(c1O)C(=O)C[C@@H](c1ccccc1)O2 | -14%
O=C(NC1CC2CCC(C1)N2C(=O)NCc1ccccc1)NC12CC3CC(CC(C3)C1)C2 (stereo unspecified) | -19%
CCCOC(=O)C(C)n1cnc2sc(C)c(C)c2c1=O (stereo unspecified) | 8%
COc1cccc(COc2ccccc2C2Nc3ccc(Br)cc3C(=O)N2NC(=O)c2ccncc2)c1 (stereo unspecified) | -8%
S=c1nc2ccccc2c2nc(-c3ccccc3Cl)[nH]n12 | -28%
COCC(=O)NNC(=O)c1ccc(OC)cc1 | -16%
O=C(C1CCC(Cn2c(=O)c3sccc3n(Cc3cccc(F)c3)c2=O)CC1)N1CCOCC1 (stereo unspecified) | 1%
Cc1ccc(O)c(NC(=O)C2=CC(c3cccs3)=NS(=O)(=O)N2C)c1 | -14%&9%
COc1ccccc1C(=O)NC(=O)COC(=O)Cn1[nH]c(=O)c2ccccc2c1=O | -4%
CN(CC(=O)Nc1ccc(F)cc1)C(=O)Cc1ccsc1 | -15%
Cc1ccc(Sc2cc(C(=O)c3ccccc3C(=O)O)ccc2[N+](=O)[O-])cc1 | -17%
CCC1([N+](=O)[O-])COC(c2ccc(Cl)cc2)OC1 (stereo unspecified) | 4%
COc1ccc(C2=NN(S(C)(=O)=O)C(c3cccs3)C2)cc1 (stereo unspecified) | -1%
CN(C)CCn1c(=O)n(-c2ccc(F)cc2)c(=O)c2c3c(sc21)CCCCC3 | 39%[activator]
O=C1Nc2cc(C(=O)NCCN3CCCCCC3)ccc2S/C1=C\c1ccccc1 | 7%
OCC(O)C(O)C(O)C(O)C(O)CO (stereo unspecified) | 5%
O=c1cc(COc2ncnc3c(Cl)cc(Cl)cc23)nc2sccn12 | 7%
O=C(NCCc1nnc2ccc(SCC(=O)N3CCCC3)nn12)c1ccccc1 | -4%
Cc1ccc(C)c(CN2C(=O)C(O)(c3c[nH]c4ccccc34)c3ccccc32)c1 (stereo unspecified) | -1%
Cc1ccc(-c2nc3cc(NC(=O)C(C)C)ccc3o2)cc1 | -13%
COc1ccc(S(=O)(=O)N2CCOCC2)c2ccccc12 | -10%
Cc1ccc(S(=O)(=O)N[C@H](C(=O)OCC(=O)NC(=O)c2cccn2C)C(C)C)cc1 | 15%
O=C(COC(=O)CCSc1ccccc1)NCc1ccccc1Cl | -13%
Cc1cccc(NC2CCCCC2NS(=O)(=O)c2ccccc2)c1 (stereo unspecified) | -9%
COc1cccc(CNC(=O)c2ccccc2-c2ccccc2C(=O)O)c1 | -18%
CN(CCc1ccccc1)C(=O)c1ccc(NC(=O)Cc2cccc(NC(=O)C3CCN(C(=O)CCc4ccccc4)CC3)c2)cc1 | -16%
Nc1cc(=O)[nH]c(SCC(=O)Nc2cc([N+](=O)[O-])ccc2Cl)n1 | -15%
Cc1ccc(Cl)cc1N1CCN(C(=O)Cn2ncc3c4ccccc4n(C)c3c2=O)CC1 | 5%
CCCC1(C(=O)OC)NC(c2ccc(OC)c(OC)c2)C2C(=O)N(c3ccc4c(c3)OCO4)C(=O)C21 (stereo unspecified) | 4%
O=C(/C=C/c1ccc([N+](=O)[O-])cc1)OCc1cnc(-c2ccccc2)o1 | -19%
O=C(/C=C/c1cccc([N+](=O)[O-])c1)N1CC[C@@]2(O)CCCC[C@H]2C1 | -2%
CC1COc2ccccc2N1C(=O)c1ccc(F)cc1 (stereo unspecified) | -27%
COC(=O)c1cc(OC)c(OC)cc1NC(=S)N1CCCC1 | 9%
COc1nc(OC)nc(N2CCC(C(=O)NCc3ccco3)CC2)n1 | 12%
O=C(O)CCc1nc(-c2ccccc2Cl)no1 | 7%
O=C(NCc1ccccn1)Nc1cccc(NC(=O)NCc2ccccn2)c1 | 9%
Cc1cccc2nc(CSc3nnc4ccccn34)cn12 | 5%
CC(NC(=O)C1CCC(=O)N1Cc1ccc(F)cc1)c1ccc2c(c1)OCCO2 (stereo unspecified) | 3%
CCN(CC)c1ncnc2c1ncn2[C@@H]1O[C@H](COP(=O)(O)OP(=O)(O)C(Br)(Br)P(=O)(O)O)[C@@H](O)[C@H]1O | 11%
Cc1[nH]c2ccccc2c1C(=O)COC(=O)C1CC(O)CN1S(=O)(=O)c1ccc(Cl)cc1 (stereo unspecified) | ?
N#C/C(=C/c1ccc(Cl)cc1)c1nc(-c2ccc(Br)cc2)cs1 | -11%
O=C(NNC1=NCCCCC1)c1cccc([N+](=O)[O-])c1 | 16%
C#CCNC(=O)C1=C[C@@H](c2coc3ccccc3c2=O)[C@H](CCCO)[C@@H](OCC)O1 | -4%
O=C(O)c1cc(-c2ccc(Cl)c(Cl)c2)n(-c2ccc(F)cc2)n1 | ?
O=C(Cn1nnc(-c2ccccc2)n1)OC1CCOC1=O (stereo unspecified) | 11%
COc1ccc2c(C)cc(SCC(=O)Nc3c(C)n(C)n(-c4ccccc4)c3=O)nc2c1 | 10%
Cc1ccc(S(=O)(=O)NCC(=O)N2CCOCCOCCOCC2)cc1 | 4%
CCN(CC)CCCNC(=O)c1c(O)c2cc(F)cc3c2n(c1=O)C(C)CC3 (stereo unspecified) | -5%
CN(C(=O)COC(=O)COc1ccccc1F)C1CCS(=O)(=O)C1 (stereo unspecified) | 22%
COCCNC(=O)Cn1ccc2cc(S(=O)(=O)N3CCCCCC3)ccc21 | -6%&17%
CCc1cc(C(=O)OC)c(NC(=O)CC2Nc3cc(C)c(C)cc3NC2=O)s1 (stereo unspecified) | -15%
O=C(CSc1nc2ccccc2c(=O)n1-c1ccc(F)cc1)Nc1ccc(Cl)c(S(=O)(=O)N2CCOCC2)c1 | -6%
O=C(Nc1cnn(Cc2ccc(Cl)cc2)c1)c1ccc([N+](=O)[O-])cc1 | -12%
COc1ccc(OC)c(-n2nnnc2SCC(=O)Nc2nc(C)c(C)s2)c1 | 11%
Cc1ccc2nc(N/C(=N/S(=O)(=O)c3ccc(F)cc3F)c3ccccc3)sc2c1 | -4%
COc1ccc(N2CCN(C(=O)c3ccc(-c4nc(COc5ccccc5)c(C)o4)cc3)CC2)cc1 | 3%

(continued)
Compound | VDR inh
CCC(O)c1nc2ccccc2n1Cc1cc(C)ccc1C (stereo unspecified) | 2%
CC1CCc2nc3ncn(Cc4ccc(Cl)cc4)c(=O)c3cc2C1 (stereo unspecified) | 11%
C=CCNC(=O)[C@H]1N2C(=O)c3ccccc3C2SC1(C)C (stereo partly specified) | -3%
COCCN1Cc2cccc(C(=O)Nc3ccc(C)cc3C)c2C1=O | 4%
CCCCCc1c(C)nc(N2CCc3ccccc3C2)[nH]c1=O | 8%
CCOC(=O)c1cnc(N2CCN(c3ccccc3)CC2)[nH]c1=O | -5%
O=C(C1CCN(c2nc(-c3ccccc3)nc3c2CCC3)CC1)N1CCCC1 | -5%
COc1cc(NC(=O)c2sc3ncn(CC(=O)N4CCC(C)CC4)c(=O)c3c2C)cc(OC)c1OC | 3%
Cc1ccc(-c2nnc3ccc(SCC(=O)N4CCc5ccccc54)nn23)cc1 | -8%
CN(c1ccc(OCC(=O)OCc2nnc(-c3ccccc3)o2)cc1)S(=O)(=O)c1ccc(Cl)cc1 | -8%
COc1ccc(C(=O)N2CCN(c3nc4c(C)c(Cl)ccc4s3)CC2)c(OC)c1 | -3%
COc1cccc(C(=O)N2CCC(O)(c3cccnc3)CC2)c1 | -7%
CCOc1ccc(NC(=O)CC2S/C(=N/N=C3CCCCCC3)NC2=O)cc1 (stereo unspecified) | -6%
COCCCNC(=S)NCCCNc1nc2cc3c(cc2cc1C#N)OCO3 | 8%
Cc1nc(-c2ccccc2)sc1-c1nc(-c2ccccc2)ncc1S(=O)(=O)c1ccccc1 | 13%
CCCCOc1ccc(NC(=O)C2OC3OC(C)(C)OC3C3OC(C)(C)OC23)cc1 (stereo unspecified) | -9%
O=C(CCCC(=O)NCc1ccc(F)cc1)NCc1ccc(F)cc1 | 14%
CN(C)c1ccc(-c2ccc3ncnc(-n4ccnc4)c3c2)cc1 | 16µM*
COc1ccc(C(=O)CCN2CCCC(C)C2)cc1 (stereo unspecified) | 71µM*
Cc1cc(=O)n(C)c(=O)n1CC(=O)N1CCCCCC1 | 26%

The list goes on.
smiles	VDR inh
CC(C)(C)c1ccc(C(=O)NNC(=O)c2ccc(Cl)cc2)cc1	-7%
COc1cc(C(C)=O)ccc1OCC(O)CN1CCN(c2ccccc2)CC1 (stereo unspecified)	-7%
Cc1noc(C(=O)Nc2c(C)nn(Cc3ccccc3)c2C)c1Cl	-8%
Cc1cc(-c2ccc(S(=O)(=O)N3CCN(C)CC3)s2)on1	6%
Cc1ccc(C)c(Nc2nc(-c3ccccc3)c3cc(Br)ccc3n2)c1	-1%
Cn1c(CNc2ccccc2)nc2ccccc21	0%
CCOC(=O)CC(NC(=O)Cn1nnc(-c2ccc(C(F)(F)F)cc2)n1)c1ccc(C)cc1 (stereo unspecified)	13%
CC(C)c1ccc(NC(=S)NC2CC3C=CC2C3)cc1 (stereo unspecified)	?
Cc1ccc(OC(C)C(=O)Nc2ccccc2C(=O)N2CCN(C)CC2)cc1 (stereo unspecified)	-17%
CCCCN=C1NC(=O)C(CC(=O)NCCc2ccc(OC)cc2)S1 (stereo unspecified)	15%
Cc1ccc(C(=O)CSc2nnc(-c3cccnc3)n2N)cc1	23%
CCCCCC(=O)NC(=S)Nc1cccc(C(C)=O)c1	0%
CCOCCCNC(=O)c1ccc2c(c1)ncn2-c1cccc(C)c1	16%
Cc1cc(Br)ccc1NC(=S)NCCc1ccccc1	6%
COc1ccc(-c2noc(CSc3nnc(Cc4ccccc4)n3-c3ccccc3)n2)cc1OC	13%
N#Cc1ccccc1NC(=O)CNc1cc(S(=O)(=O)N2CCOCC2)ccc1NCC1CCCO1 (stereo unspecified)	0%
CCCn1c(SCC(=O)Nc2ccc(OC)cc2)nnc1-c1ccncc1	-17%
COc1ccc(CNC(=O)C2CC(c3ccc(OC)cc3)=NO2)cc1 (stereo unspecified)	3%
Cc1ccc(C(=O)COC(=O)c2cn(-c3ccccc3)nc2-c2ccccc2)cc1[N+](=O)[O-]	-15%
C[C@H](CO)N1C[C@H](C)[C@@H](CN(C)C(=O)Nc2ccccc2)Oc2c(NC(=O)NC3CCCCC3)cccc2C1=O	11%
Cc1cccc(OC(=O)n2c(=S)oc3cc(Cl)ccc32)c1	5%
CCOC(=O)c1c(C)c(C(=O)O)n(C)c1C	11%
CC(C)c1ccc(Cc2cn3cc(-c4cc5ccccc5oc4=O)nc3s2)cc1	-10%
CC(C)c1cc(N=O)cc(C(C)C)c1O	2%
CC(=O)Nc1nc(-c2cc([N+](=O)[O-])cs2)cs1	-2%
O=c1[nH]ncc(N2CCCCC2)c1Cl	-9%
COc1ccc2nc3c(c(-c4ccccc4)c2c1)CCC3	8%
CC1CCCN(c2c([N+](=O)[O-])c(=O)oc3ccccc23)C1 (stereo unspecified)	-5%
O=C(COC(=O)c1ccc(O)cc1O)NC1CC1	-18%
CC(C)[C@@H]1CC[C@@H](C)C[C@H]1OC(=O)C[n+]1cc(-c2ccc(Cl)cc2)n2c1CCCCC2	0%
COc1ccc(CNC(=O)C2CCCN2S(=O)(=O)c2ccc(Cl)cc2)cc1 (stereo unspecified)	4%
Cc1cc(C)c(S(=O)(=O)N2CCN(c3ccc([N+](=O)[O-])c(-n4nc(C)cc4C)c3)CC2)c(C)c1	4%
COc1ccc(Nc2cc(C(=O)NCCCN3CCOCC3)c3ccccc3n2)cc1OC	-2%
C=CCn1c2ccccc2c2n[nH]c(=S)nc21	?
COc1ccc(CCNC(=O)Cn2ncc3c(C)n(Cc4ccccc4F)c(C)c3c2=O)cc1OC	-8%
CCCCCn1c(-c2ccco2)nc2nc3ccccc3nc21	12%
Cc1ccc(C(C(=O)NC(C)(C)C)N(Cc2ccco2)C(=O)Cn2nnc(-c3cccs3)n2)cc1 (stereo unspecified)	7%
CC(C)NC(=O)Cn1c(SCC(=O)NC2CCCC2)nc2ccccc21	7%
Cc1cccc(-c2nc3c(c(SCC(N)=O)n2)CCCC3)c1	-5%
CCOC(=O)NN1C(=O)c2ccccc2NC1c1ccc(OC)cc1OC (stereo unspecified)	-11%
COc1ccc(NC(=O)C2CCN(S(=O)(=O)c3c(C)noc3/C=C/c3cccs3)CC2)cc1Cl	-17%
CCCCCc1cc(=O)oc2c(C(CCN3CCCCC3)c3cc(OC)c(OC)c(OC)c3)c(OC)cc(OC)c12 (stereo unspecified)	7%

Compound activity as filed in PubChem BioAssay.
